Screens as filed in PubChem BioAssay.
AID923 – qHTS Assay for Allosteric/Competitive Inhibitors of Caspase-1: Spectroscopic Profiling in AFC Spectral Region; compound fluorescence, AFC spectral region (405/520 nm); almost no hit is shown here; AID 923, 2007; Potency, µM (highest dose often 57.5 µM), for the others: at the highest dose fluorescence increase, actives largely listed as activators; 75,000 compounds, 1.1% hits; active = well fitted activation curve with a large enough effect;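 also: 0% is about no effect; scaled to a free AFC standard on each plate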
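Compound autofluorescence profiled at 405 nm ex/520 nm em during kinetic caspase 1 run (50 nM enzyme, 5 uM Ac-WEHD-AFC, HEPES pH 7.5, 10 mM DTT). Titration up to 57 uM; baseline from regression intercept, normalized to AFC standard curve.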
Numbers without * were called inactive; & = joins results of further samples; [ ] = remark or other dose. Potency is read from the fitted curve at half-maximal effect. A portion of the library; count on the stated rates, not on these rows.

SMILES	AID923
S=P(N1CC1)(N1CC1)N1CC1	-2.4%
COC(=O)[C@@]1(C)CCC[C@@]2(C)c3ccc(O)c(C(C)C)c3CCC21 (stereo not given in full)	-0.1%
CC1(C)SC2C(NC(=O)COc3ccccc3)C(=O)N2C1C(=O)O (stereo not given)	0.8%
Nc1ccc(-c2ccc3ccccc3n2)cc1	-1.5%
CCCN(CCC(=O)Nc1ccccc1F)CC1CC1	1.9%
Nc1ncnc2c1nc(Cl)n2C1OC(CO)C(O)C1O (stereo not given)	0.0%
COc1cc(OC)c2c(=O)c(-c3ccccc3)coc2c1	8.1%
Clc1ccc(C2[C@H]3CN(Cc4ccc(-c5ccccc5)cc4)[C@H](c4ccccc4)C34CC2(c2cccnc2)C4)cn1 (stereo not given in full)	3.5%
CC(=O)OCC(=O)[C@@]12OC3(CCCC3)OC1CC1C3CCC4=CC(=O)C=C[C@@]4(C)[C@]3(F)C(O)C[C@]12C (stereo not given in full)	-1.7%
CC(=O)C1=C(C)NC(SCC(N)=O)=C(C#N)C1c1cccnc1 (stereo not given)	11.0%
COc1cc(N)ccc1Cc1ccc(N)cc1OC	-1.3%
O=C1C=CC(=C(c2ccc(O)cc2)c2ccc(O)cc2)C=C1	-2.5%
CC(=O)c1ccc(OC(=O)c2ccc(Br)o2)cc1	1.1%
NCC(=O)CCC(=O)O	-2.3%
O=C(Cc1cccs1)NC1C(=O)N2C(C(=O)[O-])=C(C[n+]3ccccc3)CSC12 (stereo not given)	3.5%
CC(N)C(O)c1cccc(O)c1 (stereo not given)	-0.1%
CC(C)=CCC1=C(O)c2ccccc2C(=O)C1=O	-0.5%
COc1cccc(OC)c1C(=O)NC1C(=O)N2C1SC(C)(C)C2C(=O)O (stereo not given)	2.4%
COc1ccc(C(c2sc3nc(C)nn3c2O)N2CCC(C(N)=O)CC2)cc1OC (stereo not given)	-1.7%
CCc1cc2c(N3CCN(c4ccccc4)CC3)ncnc2s1	0.0%
O=C(c1ccco1)N1CCN=C1SCc1cccc(Cl)c1	1.0%
NC1=NCCN1CC(=O)O	-4.0%
CNC1C(O)[C@@H]2OC(O[C@@H]3C(O)C(O)C(N)C[C@H]3N)C(N)C[C@H]2O[C@H]1O[C@@H]1OC(CO)C(N)C(O)C1O (stereo not given in full)	0.8%
CCCCS(=N)(=O)CCC(N)C(=O)O (stereo not given)	0.4%
CCOC(=O)CC(C(=O)OCC)P(=O)(c1ccccc1)c1ccccc1 (stereo not given)	0.6%
CCOC(=O)C(CCc1ccccc1)NC(C)C(=O)N1CCCC1C(=O)O (stereo not given)	2.2%
COC(=O)C1C(=O)c2c([nH]c(C(=O)OC3CCCC3C)c2C)CC1C (stereo not given)	0.4%
COc1cc(C(O)c2nc3ccccc3n2C)cc(OC)c1OC (stereo not given)	0.4%
CCC(c1ccccc1)c1nc(-c2ccccn2)no1 (stereo not given)	5.5%
CC(=O)Nc1ccc(S(=O)(=O)Nc2ccc([N+](=O)[O-])cc2)cc1	-1.2%
O=C(CCCCCCCCCCCCC1CCCC1)Nc1ccc(S(=O)(=O)c2ccc(NC(=O)CCCCCCCCCCCCC3CCCC3)cc2)cc1	-1.7%
COC(=O)[C@H]1C[C@@H]1[C@H](NC(=O)OCc1ccccc1)c1ccccc1	1.9%
COC(=O)[C@@H]1C[C@H]2CC[C@H](O)C[C@H]2N1Cc1ccc(Cl)cc1	-0.8%
OC/C=C/c1ccc(O)c(O)c1	-1.3%
COc1c(-c2coc3cc4c(cc3c2=O)CC(O)C(C)(C)O4)ccc2c1C=CC(C)(C)O2 (stereo not given)	-3.0%
CC(=O)OCC(=O)C1CCC2C3CCC4=CC(=O)CC[C@@]4(C)C3CC[C@]12C (stereo not given in full)	-2.8%
CCC(C)Sc1nc(O)cc(=O)[nH]1 (stereo not given)	-0.3%
C1CNCCN1	1.0%
Cn1c(=O)c(C(=O)COC(=O)c2cc(-c3ccccc3)nc3ccccc23)c(N)n(Cc2ccccc2)c1=O	4.1%
COc1ccc(Cc2nnc(SCC(=O)NCCc3ccccc3)o2)cc1	0.9%
COc1ccc2c(c1)[C@@]1(C)CCC[C@](C)(CO)C1CC2 (stereo not given in full)	-1.8%
O=C(O)c1ccc2c(c1)OCO2	-3.6%
COc1ccc2c(c1)CCC1C2CC[C@@]2(C)C(O)CCC12 (stereo not given in full)	0.3%
CCC1=C(OC(=O)N(CC)CC)N2C(=O)OC(=NCC(=O)OC)[C@]2(C)[C@H]2C1=CC[C@H]1C(=O)N(C)C(=O)[C@H]12	3.7%
O=C1c2ccccc2C(Nc2ccc(F)c(Cl)c2)N1Cc1ccco1 (stereo not given)	-2.5%
COc1cc(/C=C/C(=O)c2cccs2)cc(OC)c1OC	8.4%
C[C@H]1/C=C\CC(=O)OC[C@H](C)C(=O)N2CCC[C@@H]2C(=O)OC1	1.7%[11.5 µM]
CC(CCC(=O)O)C1CCC2C3C(=O)C[C@@H]4CC(=O)CC[C@@]4(C)C3CC(=O)[C@]12C (stereo not given in full)	-2.3%
Cc1cc(O)cc(C)c1Cl	-1.4%
COC(=O)CN=C1OC(=O)N2C(=O)C3=C4C(C[C@H]5C(=O)N(c6ccccc6)C(=O)[C@H]5[C@H]4[C@@]12Cc1ccccc1)[C@H]1C(=O)N(c2ccccc2)C(=O)[C@H]1[C@H]3C (stereo not given in full)	0.1%
More records:
SMILES	AID923
COC(=O)c1ccc(C23CC4(C2)[C@H](CN(Cc2ccc(-c5ccccc5)cc2)[C@@H]4c2ccccc2)C3c2ccccc2)cc1 (stereo not given in full)	0.8%
CCC1=C(OC(=O)N(CC)CC)N2C(=O)OC(=NCCOC)[C@]2(Cc2ccccc2)[C@H]2C1=CC[C@H]1C(=O)N(CC)C(=O)[C@H]12	1.4%
C=CCOC(=O)C1=C(C)N=C2SCCC(=O)N2C1c1ccc(OC(=O)c2ccco2)cc1 (stereo not given)	5.6%
CC(=O)OC1CC[C@@]2(C)C(CC[C@@]3(C)C2CC=C2C4CC(C)(C)CC[C@]4(C(=O)O)CC[C@@]23C)C1(C)C (stereo not given in full)	0.2%
COC(=O)C1=C(C)N(C)C(C)=C(C(=O)OC)C1c1ccccc1C	1.7%
Cc1ccc(O)c(C2=NOC(O)(C(F)(F)C(F)F)C2)c1 (stereo not given)	-6.7%
Cc1cc(Cl)cc(Cl)c1OCC(=O)NCc1ccco1	0.8%
CC(=O)OC1CC(OC(C)=O)[C@]2(C)C(CC(O)[C@]3(C)C2CC[C@@]2(C)C(c4ccoc4)OC(=O)C4O[C@]432)C1(C)C (stereo not given in full)	0.4%
COc1ccc(/C=N/n2cnnc2SCc2ccccc2)cc1	-2.0%
CC(Cc1ccc(O)c(O)c1)(NN)C(=O)O (stereo not given)	-2.7%
CC1(C)CCC[C@]2(C)C3CC(=O)O[C@@]3(C)CC[C@H]12 (stereo not given in full)	-0.7%
CCCCOC(=O)Nc1nc2ccc(OC)cc2s1	1.4%
O=C(CN1CCOc2ccccc21)NC1CCCCCCC1	1.3%
COC(=O)[C@@H]1C[C@@]2(O)[C@@H](O)[C@@H](O)[C@@H](O)C[C@H]2N1CC1CC1	-0.7%
CCOC(=O)C1=C(C)NC(=O)N(C(C)=O)C1c1ccc(Cl)cc1 (stereo not given)	0.1%
Cn1c(Cn2c(=O)sc3ccccc32)nnc1SCc1ccccc1	-1.3%
CCC(C)C1NC(=O)C(CCNCS(=O)(=O)O)NC(=O)C(NC(=O)C(CCNCS(=O)(=O)O)NC(=O)C(NC(=O)C(CCNCS(=O)(=O)O)NC(=O)CCCCC(C)C)C(C)O)CCNC(=O)C(C(C)O)NC(=O)C(CCNCS(=O)(=O)O)NC(=O)C(CCNCS(=O)(=O)O)NC(=O)C(C(C)CC)NC1=O (stereo not given)	5.3%
Nc1ncnc2c1c(I)cn2C1OC(CO)C(O)C1O (stereo not given)	1.4%
C=C(C)C1CC=C(C(=O)O)CC1 (stereo not given)	-0.3%
NCC(O)CC(=O)O (stereo not given)	-2.8%
COc1ccc(-c2coc3cc(O)ccc3c2=O)c(OC)c1	-1.0%
COc1ccc2c(=O)ccoc2c1	-0.3%
CC1CCC(C(C)C)[C@H](OC(=O)c2ccccc2)C1 (stereo not given in full)	0.1%
O=c1cc(-c2ccc(O)cc2)oc2ccc(O)cc12	-4.8%
CC(=O)NC(CCC(=O)O)C(=O)O (stereo not given)	-3.9%
Oc1ccc2c(c1)OCC1c3cc4c(cc3OC21)OCO4 (stereo not given)	-0.2%
CCC1=C2CC[C@H]3C(=O)N(c4ccccc4)C(=O)[C@H]3[C@H]2[C@@]2(C)C(=NCc3ccccc3)OC(=O)N2C1=O	-3.5%
Cc1ccccc1N1C(=O)c2cc(S(N)(=O)=O)c(Cl)cc2NC1C (stereo not given)	-3.9%&0.5%
CCc1ccc(N(CC(=O)NC2CCCCC2)S(=O)(=O)c2c(C)noc2C)cc1	3.1%
COc1nc(Oc2ccc(=O)n(C)n2)nc(N(C)C)n1	-0.9%
Cn1c(N)c(C(=O)COC(=O)c2cc(C(F)(F)F)nc3c(C(F)(F)F)cccc23)c(=O)n(C)c1=O	-1.1%
Brc1ccc(-c2nnc(-c3ccco3)o2)cc1	-0.8%
CC(C)CCCC(C)C1CCC2C3CC[C@H]4CC(=O)CC[C@@]4(C)C3CC[C@@]12C (stereo not given in full)	-0.3%
Nc1ccc(SC(F)(F)F)cc1C(=O)c1ccccc1	-0.4%
CC(=O)Oc1cccc(O)c1	0.1%
Cc1cccc2c3c(ccc12)C1=C(C(=O)C3=O)C(C)CO1 (stereo not given)	-0.4%
CC(=O)Oc1ccc(/C=C/C(=O)CC2OC(Oc3cc(OC(C)=O)c4c(c3)O[C@@H](c3ccc(OC(C)=O)cc3)CC4=O)C(OC(C)=O)C(OC(C)=O)C2OC(C)=O)cc1 (stereo not given in full)	-1.0%
CC1(C)CC(=O)C(C=NCCN2CCN(C(=O)CC3CCCC3)CC2)=C(O)C1	-0.3%
CC(C)=CCC/C(C)=C/CC/C(C)=C/CC/C(C)=C/CO	-1.7%
Nc1nc2c(ncn2[C@@H]2O[C@H](CO)[C@@H](O)[C@H]2O)c(=O)[nH]1	-1.3%
Nc1nc2c(nc(Br)n2C2OC(CO)C(O)C2O)c(=O)[nH]1 (stereo not given)	-0.8%
O=C(c1cc(-c2ccccc2)nc2ccccc12)N1CCOCC1	4.1%
O=C(OCN1C(=O)c2ccccc2C1=O)c1ccco1	0.3%
C[N+]1(C)CC(O)[C@H](C(=O)[O-])C1 (stereo not given in full)	1.0%
CN(C)/C=N/c1cc(=O)n(C)c(=O)n1CC1CC1	-0.2%
CC1(C)CC[C@]2(C(=O)O)C(O)C[C@@]3(C)C(=CCC4[C@@]5(C)CCC(O)C(C)(C)C5CC[C@@]43C)C2C1 (stereo not given in full)	2.2%
N=C(N)N	-0.8%
Cc1cc(OCCNCCO)cc(C)c1Cl	-0.5%
CC1(C)S[C@H]2C(NC(=O)[C@@H](N)c3ccc(O)cc3)C(=O)N2[C@@H]1C(=O)O (stereo not given in full)	2.3%
COc1ccc2c(=O)c(OC)c(-c3ccccc3)oc2c1	-1.0%
Continuation.
SMILES	AID923
CCCc1cc(C(=O)Nc2cc(OC)c(Cl)cc2OC)no1	-1.1%
Oc1cc(O)c2c(c1)OC(c1ccc(O)c(O)c1)C(O)C2 (stereo not given)	1.5%
CCOc1ccc(N(CC(=O)NC2CCCCCC2)S(=O)(=O)c2c(C)noc2C)cc1	1.5%
C=C1C(=O)OC2C[C@@]3(C)CCCC(C)C3=CC12 (stereo not given in full)	-0.2%
Cc1cc(C)n(S(=O)(=O)c2ccc(Cl)c(Cl)c2Cl)n1	0.7%
CCC(C)NC(=O)CN(c1ccc(OC)cc1)S(=O)(=O)c1ccc(NC(C)=O)cc1 (stereo not given)	-2.5%
COC(=O)CCC(C)C1CCC2C3C(C[C@H](O)C12C)C1(C)CC[C@@H](O)CC1C[C@H]3O (stereo not given in full)	0.1%
CC1(C)C(O)CC[C@]2(C)C1CC[C@@]1(C)C2C(=O)C=C2[C@@H]3C[C@@](C)(C(=O)O)CC[C@@]3(C)CCC21C (stereo not given in full)	-1.4%
O=C(NC1c2ccccc2-c2ccccc21)N1CCOCC1	0.0%
Cc1cccc(NC(=O)COc2ccc(Br)cc2)n1	1.3%
